VDR inh = inhibitors of human vitamin D receptor. P11473. AID 504847. 400,000 compounds, 0.93% hits. Potency, µM, for inactives: max response, negative = inhibition, hits mostly inhibitors. VDR-SRC2-3 peptide fluorescence polarization, 2 h; active = well fitted inhibition curve with a large enough effect; inconclusive = small, poorly fitted or top-dose-only effect, or another doubt; inactive = no such curve, though single readings can be large or run the other way; note: series mostly up to about 120 µM
Target sequence (P11473 whole entry, looked up): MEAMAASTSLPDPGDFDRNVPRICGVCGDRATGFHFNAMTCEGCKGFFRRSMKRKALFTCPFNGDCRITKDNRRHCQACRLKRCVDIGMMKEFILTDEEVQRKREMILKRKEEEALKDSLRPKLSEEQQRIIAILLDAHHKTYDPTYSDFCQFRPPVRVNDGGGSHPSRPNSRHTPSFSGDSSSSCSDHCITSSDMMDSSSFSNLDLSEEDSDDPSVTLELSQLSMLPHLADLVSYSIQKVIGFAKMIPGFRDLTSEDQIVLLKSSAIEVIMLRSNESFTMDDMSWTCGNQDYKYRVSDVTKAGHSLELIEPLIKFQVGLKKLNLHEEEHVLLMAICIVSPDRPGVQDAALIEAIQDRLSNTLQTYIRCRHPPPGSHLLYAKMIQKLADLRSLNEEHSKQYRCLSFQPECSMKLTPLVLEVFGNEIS
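Inhibition of the VDR/SRC2-3 peptide interaction is quantified by fluorescence polarization. Compounds (23 nl, pintool) incubate with the reagents for 2 hours at ambient room temperature.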
Active calls of the source: *; ? = inconclusive; & = joins results of further samples; [ ] = another dose, or the depositor's remark. % is set by controls: 0 for no effect and ±100 for the full control effect; potency is the fitted concentration of half-maximal effect. This is a subset; rates above refer to the full screens.

SMILES	VDR inh
CN1CCN(S(=O)(=O)c2cccc(C(=O)N(C)Cc3c(F)cccc3Cl)c2)CC1	6%
Oc1ccc(-c2nc3ncccn3c2Nc2ccc3c(c2)OCO3)cc1	-27%
O=C1/C(=C\c2cccc([N+](=O)[O-])c2O)SC(=S)N1Cc1ccccc1	?
CCN(CC)C(=O)c1sc2c(c1C)c(=O)n(-c1ccc(C)c(C)c1)c(=O)n2CC(=O)NCC1CCCO1 (stereo not given)	-18%
O=S(=O)(c1ccc(NC(=S)N/N=C/c2ccc(O)c(O)c2)cc1)N1CCOCC1	0%
COc1ccccc1OCC(=O)NCC1CCCN(Cc2cnn(C)c2C)C1 (stereo not given)	-1%
CC(NC(=O)/C=C/c1cnc2ccccc2n1)C12CC3CC(CC(C3)C1)C2 (stereo not given)	-9%
CC(C)NC(=S)N/N=C/c1c[nH]c2ccccc12	-5%
COc1cccc(OCc2cc(C(=O)NCC3CCCCC3)no2)c1	11%
O=C(c1cccc(Cl)c1)n1nc(-c2ccco2)nc1NCc1cccs1	11%
CC1(C)CC(=O)C2=C(C1)NC(=O)CC2c1ccc(F)cc1 (stereo not given)	5%
N#CC1=C2C=Cc3ccccc3N2CCCC1=O	-9%
CCOC(=O)c1ccc(Nc2cc(C)nc(C)c2C(=O)OCC)cc1	4%
O=C(NC1CCCC1)C1CCC(=O)N1C1CCCCC1 (stereo not given)	16%
COc1cccc(NC(=O)CCC(=O)Nc2ccc3nc(N4CCOCC4)cc(C)c3c2)c1	18%
CCOc1ccc(NC(=O)COc2ccc(N3CC(C(N)=O)CC3=O)cc2)cc1 (stereo not given)	-3%
CCCCN1CC(COCc2ccccc2)Oc2ccccc2S1(=O)=O (stereo not given)	-4%
COc1ccc(-c2cc(C(F)(F)F)nc(SCCC(=O)NCc3ccccc3)n2)cc1	-7%
C=CCn1c(-c2cccc(OCC)c2)n[nH]c1=S	13%
O=C(COC(=O)Cc1n[nH]c(=O)c2ccccc12)NNC(=O)c1ccccc1	9%
C=CCSCC1Nc2cc(Cl)c(S(N)(=O)=O)cc2S(=O)(=O)N1 (stereo not given)	-12%&-2%
Cc1cccc(OCC(=O)N(Cc2ccc(C(C)(C)C)cc2)Cc2ccco2)c1	9%
O=C(CN1C(=O)C2C3C=CC(C3)C2C1=O)NCc1ccc2c(c1)OCO2 (stereo not given)	-6%
COc1ccc(CCNC(=O)Cn2c(=O)n(-c3ccc(F)cc3F)c(=O)c3sccc32)cc1OC	12%
CC(=O)c1ccc(OCCCC(=O)NCc2nnc3ccccn23)cc1	10%
CC(C)C(NC(=O)C1CCCCC1)C(=O)NCCc1ccccc1 (stereo not given)	-12%
Cc1ccc(OCC(=O)Nc2nnc(S(=O)(=O)N3CCc4ccccc43)s2)cc1	5%
O=S(=O)(NCc1cc(-c2ccccc2)no1)c1ccccc1	2%
O=C(NCc1cccc(Cl)c1)c1cnc(N2CCCCC2)c2ccccc12	-2%
COCCCNC(=O)c1c(N)n(/N=C/c2cccs2)c2nc3ccccc3nc12	-7%
Cc1ccc2oc(-c3ccc(C)c(NC(=O)/C=C/c4ccc(Cl)cc4)c3)nc2c1	12%
COc1ccc(S(=O)(=O)Nc2cccc(S(=O)(=O)N3CCCC3)c2)cc1OC	1%
COc1ccc(CN(CC(=O)NCc2ccc(F)cc2)C(=O)CCC(=O)Nc2ccccn2)cc1	-12%
CCCCn1c(N)c(N(CC)C(=O)c2cc(OC)cc(OC)c2)c(=O)[nH]c1=O	-14%
CC(C)NC(=O)C(c1ccc(F)cc1)N(C(=O)CCC(=O)Nc1ccccn1)c1ccccc1F (stereo not given)	-15%
COc1ccc(CNC(=O)CSc2nnc(NC(=O)c3ccccc3F)s2)cc1	-10%
CCOC(=O)c1ccc(CNc2ncnc3nc[nH]c23)cc1	4%
CC(NC(=O)c1cccs1)c1ccc(Cl)cc1 (stereo not given)	-22%
Cc1ccc(/C=C/C(=O)O)cc1S(=O)(=O)N1CCc2ccccc21	-23%
COc1cccc(CNC(=O)CN2CCCN(Cc3ccccc3)S2(=O)=O)c1	-12%

Exported comma-delimited: part of the list above.
Molecule,VDR inh
COc1ccc(CCNC(=O)Cn2c(=O)n(-c3ccc(F)cc3F)c(=O)c3sccc32)cc1OC,12%
CC(=O)c1ccc(OCCCC(=O)NCc2nnc3ccccn23)cc1,10%
CC(C)C(NC(=O)C1CCCCC1)C(=O)NCCc1ccccc1 (stereo not given),-12%
Cc1ccc(OCC(=O)Nc2nnc(S(=O)(=O)N3CCc4ccccc43)s2)cc1,5%
O=S(=O)(NCc1cc(-c2ccccc2)no1)c1ccccc1,2%
O=C(NCc1cccc(Cl)c1)c1cnc(N2CCCCC2)c2ccccc12,-2%
COCCCNC(=O)c1c(N)n(/N=C/c2cccs2)c2nc3ccccc3nc12,-7%
Cc1ccc2oc(-c3ccc(C)c(NC(=O)/C=C/c4ccc(Cl)cc4)c3)nc2c1,12%
COc1ccc(S(=O)(=O)Nc2cccc(S(=O)(=O)N3CCCC3)c2)cc1OC,1%
COc1ccc(CN(CC(=O)NCc2ccc(F)cc2)C(=O)CCC(=O)Nc2ccccn2)cc1,-12%
CCCCn1c(N)c(N(CC)C(=O)c2cc(OC)cc(OC)c2)c(=O)[nH]c1=O,-14%
CC(C)NC(=O)C(c1ccc(F)cc1)N(C(=O)CCC(=O)Nc1ccccn1)c1ccccc1F (stereo not given),-15%
COc1ccc(CNC(=O)CSc2nnc(NC(=O)c3ccccc3F)s2)cc1,-10%
CCOC(=O)c1ccc(CNc2ncnc3nc[nH]c23)cc1,4%
CC(NC(=O)c1cccs1)c1ccc(Cl)cc1 (stereo not given),-22%
Cc1ccc(/C=C/C(=O)O)cc1S(=O)(=O)N1CCc2ccccc21,-23%
COc1cccc(CNC(=O)CN2CCCN(Cc3ccccc3)S2(=O)=O)c1,-12%

Following part.
SMILES	VDR inh
CCOC(=O)C1CCCN(C(=O)c2cc(CN3C(=O)c4ccccc4C3=O)ccc2OC)C1 (stereo not given)	6%
O=C(Nc1ccc(Br)cc1F)c1cc2nc(-c3ccco3)cc(C(F)(F)Cl)n2n1	-13%
C=C1CCN([C@@H](C)C(=O)OCc2cccc(C)c2)S(=O)(=O)c2ccccc21	0%
COc1ccc(OC)c(CCNC(=O)CCCn2c(=O)c3cccn3c3ccc(F)cc32)c1	4%
COCC(=O)Nc1cccc(Br)c1	-21%
COc1ccc(N2CC(C(=O)NCCc3c[nH]c4ccccc34)CC2=O)cc1 (stereo not given)	8%
CCCCC(=O)Nc1ccc(C(=O)Nc2ccc(S(=O)(=O)Nc3nccc(C)n3)cc2)cc1	-18%
CCOC(=O)Cn1c(=O)sc2cccc(Cl)c21	-3%
CCc1nnc(N2CCN(c3ncnc4c3oc3ccccc34)CC2)s1	-2%
CCc1ccccc1N(CC(=O)Nc1cccc(N(C)S(C)(=O)=O)c1)S(C)(=O)=O	-1%
COCCn1c(SCC(=O)NC(=O)NC2CCCCC2)nc2ccccc2c1=O	-9%
Cc1ccc(CSC2=Nc3ccccc3C3=NC(CC(=O)NCc4ccco4)C(=O)N23)cc1 (stereo not given)	0%
Cc1nc(SC(C)C(=O)Nc2ccccc2C)cc(-c2ccccc2)n1 (stereo not given)	22%
CN(CC(=O)N1CCOCC1)C(=O)CSc1nc2ccccc2s1	2%
CCC(=O)c1cc2c(C)cc(=O)oc2c(C)c1OC	-8%
O=C(NCC(=O)N(CC1CCCO1)C1(C(=O)NC2CCCC2)CCCCC1)c1ccccc1 (stereo not given)	6%
COc1ccc(CN2CCN(C(=O)C3CCN(S(=O)(=O)c4cccs4)CC3)CC2)c(OC)c1OC	0%
Cc1ccc(C(=O)NC(C)CCc2ccccc2)cc1S(=O)(=O)N1CCOCC1 (stereo not given)	4%
CN1CCN(S(=O)(=O)c2cccc(C(=O)Nc3nc(-c4ccccc4)cs3)c2)CC1	-11%
Cc1ccc(Nc2nc(N)nc(CSCCO)n2)cc1	7%

Three structures already listed, ordered by length of the SMILES, lowest first:
SMILES	VDR inh
CC(C)NC(=S)N/N=C/c1c[nH]c2ccccc12	-5%
O=S(=O)(NCc1cc(-c2ccccc2)no1)c1ccccc1	2%
O=C(CN1C(=O)C2C3C=CC(C3)C2C1=O)NCc1ccc2c(c1)OCO2 (stereo not given)	-6%

Following part
SMILES	VDR inh
COc1ccc(C)cc1NC(=O)c1nnn(Cc2cccc(F)c2)c1N	5%
COc1cc(-c2nc(C)c(C(C)=O)n2O)ccc1OCC(=O)Nc1ccc(F)cc1	-16%
COC(=O)C(O)(NC(=O)NC(C)=O)C(F)(F)F (stereo not given)	-6%
CN1CCN(C(=O)c2cc3nc(-c4ccccc4)cc(-c4ccccc4)n3n2)CC1	16%
Cc1cccc(-c2noc(CCC(=O)Nc3ccc(C(N)=O)cc3)n2)c1	-5%
CCOC(=O)N1CCN(c2ccc(S(=O)(=O)N3CCOCC3)cn2)CC1	-8%
CCOC(=O)Cc1ccc(NC(=O)N(C(C)C)C2CCN(C(C)=O)CC2)cc1	10%
O=C(NC1CCCCCC1)C1c2ccccc2C(=O)N1Cc1ccc(F)cc1 (stereo not given)	6%
O=C(NCc1ccc2c(c1)CCN2C(=O)c1ccc(F)cc1)c1ccc(Br)o1	12%
CC(C)CCN1C(=O)c2ccc(C(=O)NCC3CCCO3)cc2C1=O (stereo not given)	14%
COC(=O)c1ccc(C23CC4(C2)[C@H](CN(Cc2cccnc2)[C@@H]4c2ccccc2)C3c2ccc(Cl)nc2)cc1 (stereo not given in full)	-22%
O=C(COC(=O)c1cnc(Cl)c(Cl)c1)NCc1cccs1	?
C[C@H]1CN=C(N(C)C)N1CC1CCC(C(C)(C)C)CC1 (stereo not given in full)	-13%
CCSc1ccc(C(=O)Nc2ccc(Br)cn2)cc1[N+](=O)[O-]	-10%
Cc1ccc(C(=O)c2cn(Cc3ccccc3)c3nc(C)ccc3c2=O)cc1	-15%
COc1cc(NC(=O)CCC2CCCC2)cc(-n2cnnn2)c1	-8%
Cc1ccc(SCc2cn3c(C)cc(C)nc3n2)cc1	-3%
Cc1ccc(-n2nnc3c(=O)n(CC(=O)OCc4ccccc4)cnc32)cc1	-2%
CC(C)(C)C(=O)Nc1cc(NC(=O)C(C)(C)C)cc(C(=O)NNC(=O)c2ccncc2)c1	-21%
Oc1ccc(-c2nnc(SCC3CCCCC3)o2)cc1	-13%
Cc1cc(C)c(S(=O)(=O)NCc2cccs2)cc1C	70%[activator]
Cc1cc(NC(=O)CSc2ncc(CO)n2Cc2ccc(F)cc2)no1	12%
O=C(/C=C/c1ccc(Cl)cc1)N1CCN(c2ccccc2[N+](=O)[O-])CC1	-14%
O=C(Nc1ccon1)c1ccc(S(=O)(=O)N2CCCCCC2)cc1	-6%
Cc1noc(C)c1C(=O)OCC(=O)c1c(N)n(CC(C)C)c(=O)n(C)c1=O	-14%
Cc1ccc(N2C(=O)NC(NS(=O)(=O)c3ccc(Cl)cc3)(C(F)(F)F)C2=O)cc1C (stereo not given)	-1%
COC(=O)CCC(=O)N1CCC(CCC(=O)NCc2ccc(F)cc2)CC1	?
O=c1[nH]c(=S)[nH]c2c1C(c1cc([N+](=O)[O-])c(N3CCOCC3)cc1N1CCOCC1)O2 (stereo not given)	1%
c1ccn(-c2ncnc3sc4c(c23)CCCC4)c1	-10%
Fc1ccc(CNC(=S)NCc2cccc(Cl)c2)cc1	-10%
Cc1ccc(OCC(=O)N(C)CCc2ccccn2)cc1	1%
COc1ccc(-n2c(C)cc(C=O)c2C)cc1Cl	8%
O=C(NCc1ccccn1)c1ccc(OC2CCN(Cc3ccccc3O)CC2)cc1	-8%
CNC(=O)/C(C#N)=C/c1c(N2CCCCCC2)nc2ccccn2c1=O	-14%
O=C(NCc1ccco1)/C(=C/c1ccccc1F)NC(=O)c1ccccc1	22%
CCOc1ccccc1NC1=C(OC)C(=O)C(Nc2ccccc2OCC)=C(OC)C1=O	6%
COCCNC(=O)C(c1ccc(C)cc1)N(CCOC)C(=O)CCC(=O)Nc1nccs1 (stereo not given)	-4%
COc1ccc(OC)c(NC(=O)COC(=O)CC2CCCCC2)c1	-2%
Cc1ccc[n+](-c2nc3ccccc3nc2C(=C=[N-])C#N)c1	-5%&-6%
N#CC(C(=O)Nc1ccc(Cl)cc1)=C1Nc2ccccc2N1	-10%
Cn1c(NNC(=O)c2c(F)cccc2F)cc(=O)n(C)c1=O	1%
CC(C)CC(NC(=O)C(NC(=O)C1OC2OC(C)(C)OC2C2OC(C)(C)OC12)C(C)C)C(=O)O (stereo not given)	-24%
COc1cc(O)c(CC=C(C)C)c(O)c1C(=O)CCc1ccc(O)cc1	14%
Cc1sc(NC(=O)Cc2ccc3c(c2)OCO3)nc1-c1ccc2c(c1)CCN2C(=O)c1ccc(F)cc1	-24%
C=CCNC(=S)N1CCN(Cc2ccccc2)CC1	-3%
CCc1ccccc1NC(=O)c1ccc(CN2CCC(Cc3ccccc3)CC2)cc1	-7%
Cc1c(C(=O)C(=O)NCC2CCCO2)c2ccccc2n1C (stereo not given)	-11%
Cc1ccccc1C(=O)Nc1sc(C)c(C)c1C(=O)c1ccccc1	?
Cc1ccc(CNc2ncnc3c2nnn3C)cc1	1%
Cc1ccc(N2C(=O)N(CC(=O)NC(N)=O)C(=O)C2C)cc1 (stereo not given)	1%

Next section:
SMILES	VDR inh
O=C(NNc1ccccc1F)c1sccc1Cl	-11%
CN(C)S(=O)(=O)c1cccc(N=C2SCCN2Cc2ccccc2)c1	1%
COc1cc2[nH]c(=S)nc(NCCC(C)C)c2cc1OC	-3%
Cc1ccc(C)c(C(=O)CN2C(=O)NC3(CCCCCCC3)C2=O)c1	-9%
CN(C)CCCNC(=O)C[C@H]1C[C@H](C(=O)N2CCOCC2)[C@@]2(CCC3CCCC3)c3[nH]c4cc(CCC(=O)N(C)C)ccc4c3CCN2C1=O	-7%
O=C(c1ccco1)N1CCN(c2ccccc2F)CC1	2%
COCC1CCN(C(=O)C2CCC(=O)N(Cc3ccc(Cl)cc3)C2)CC1 (stereo not given)	-2%
